GLA inh pH 4.5: qHTS Assay for Inhibitors of Human alpha-Galactosidase at pH 4.5. activity change, negative = inhibition, % at 105 µM. purified enzyme, 4-MU-alpha-Gal fluorescence, pH 4.5. Alpha-galactosidase A (Homo sapiens), P06280. 230,000 tested, under 10 active; inconclusive = small, poorly fitted or top-dose-only inhibition, or a rising curve; inactive = flat fitted curve, though single readings scatter; no compound was filed as active;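 further: 0% = full activity with enzyme and -100% = basal without enzyme; dose as in the result columns while the protocol names 77 µM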
Rango dissoc inh: qHTS Assay for Inhibitors of RanGTP induced Rango (Ran-regulated importin-beta cargo) - Importin beta complex dissociation. Biochemical FRET Rango-importin beta, RanGTP-induced dissociation. AID 540253, 2011. Potency, µM (top dose mostly 46.1 µM), inactives show at the top dose activity change, negative = inhibition. Snurportin-1 (Homo sapiens) + GTP-binding nuclear protein Ran (Homo sapiens) + Importin …. 340,000 tested, 0.071% active; active means falling FRET ratio curve, often poorly fitted, with flat reads before Ran was added; inconclusive means other falling curves, or compound fluorescence or quenching; inactive means flat or rising ratio curve;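 further: potency means the concentration at half of the fitted maximal effect; % of control where 0% means no effect; nearly all actives have a fitted effect of over 45% in size; -100% = wells without RanGTP and RCC1; the record marks most hits as doubtful in a second field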
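Compounds preincubate 5 min with complex of recombinant Rango and importin beta in PBS with 1 mM DTT. Ran (0.6 uM) loaded with 2 mM GTP plus 0.2 uM RCC1 starts dissociation; FRET is recorded 45 min later.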
miR-21 reporter: qHTS Assay for Modulators of miRNAs and/orActivators of miR-21; Potency, µM (titrated, usually from 38.3 µM), inactives show at the top dose reporter change, positive = more light; 340,000 tested, under 10 active; HeLa miR-21 FLuc reporter, luciferase, 48 h; AID 2288, 2010; active = well fitted rising curve with a large enough effect; inconclusive = small, poorly fitted or top-dose-only effect; inactive = no such curve, though single readings can be large or run the other way;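 further: % of control where 0% means no effect; miR-21 action dims this reporter so a rising signal means less miR-21 action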
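Luminescence from a firefly luciferase reporter carrying a miR-21 binding site downstream, stably expressed under a CMV promoter in HeLa cells that make miR-21 endogenously, reports miRNA modulation after 48 h compound exposure up to approximately 40uM final.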
Rango complex inh: qHTS Assay for Inhibitors of Rango (Ran-regulated importin-beta cargo) - Importin beta complex formation. Importin subunit beta-1 (Homo sapiens), Q14974. Rango CFP/YFP FRET sensor + importin beta, 45 min. Potency, µM (highest dose often 92.2 µM), for inactives: top-dose inhibition of complex formation. 340,000 tested, 0.031% active. AID 540263, 2011; active = rising FRET ratio curve, often small or poorly fitted; inconclusive = mostly compound fluorescence or quenching in the first reads; inactive = flat curves in all reads;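 further: potency means the concentration at half of the fitted maximal effect; 0% = DMSO wells and 100% = buffer wells lacking importin beta; nearly all actives have a fitted effect of over 15% in size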
Target sequence (Q14974 whole entry, looked up): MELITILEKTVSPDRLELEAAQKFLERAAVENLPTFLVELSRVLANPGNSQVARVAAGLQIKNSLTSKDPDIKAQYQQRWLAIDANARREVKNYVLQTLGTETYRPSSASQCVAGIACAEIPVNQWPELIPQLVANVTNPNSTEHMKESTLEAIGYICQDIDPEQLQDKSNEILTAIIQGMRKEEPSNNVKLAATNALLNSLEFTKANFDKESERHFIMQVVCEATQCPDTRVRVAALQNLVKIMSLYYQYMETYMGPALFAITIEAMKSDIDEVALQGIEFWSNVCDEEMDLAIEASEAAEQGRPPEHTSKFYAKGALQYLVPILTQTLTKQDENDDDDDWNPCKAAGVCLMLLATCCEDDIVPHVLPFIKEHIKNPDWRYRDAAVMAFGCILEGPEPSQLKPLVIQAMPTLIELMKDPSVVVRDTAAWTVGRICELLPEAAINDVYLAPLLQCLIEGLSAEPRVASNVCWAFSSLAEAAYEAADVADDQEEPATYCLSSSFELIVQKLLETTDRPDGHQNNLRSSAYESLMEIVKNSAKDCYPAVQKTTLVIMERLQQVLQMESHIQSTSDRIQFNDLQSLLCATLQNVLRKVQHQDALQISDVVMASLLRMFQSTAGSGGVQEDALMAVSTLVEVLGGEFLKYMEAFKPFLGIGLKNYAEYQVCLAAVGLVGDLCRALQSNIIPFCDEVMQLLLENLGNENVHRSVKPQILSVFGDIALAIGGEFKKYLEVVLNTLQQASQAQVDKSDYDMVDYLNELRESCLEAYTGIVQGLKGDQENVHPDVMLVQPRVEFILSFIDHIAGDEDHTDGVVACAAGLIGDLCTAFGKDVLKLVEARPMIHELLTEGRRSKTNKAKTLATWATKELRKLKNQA
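Inhibition scored from the CFP 486 nm/YFP 530 nm FRET ratio 45 min after adding 0.125 microM importin beta to 50 nM Rango biosensor preincubated 5 min with compound (room temperature, PBS with DTT, Tween-20, BSA). No-importin wells as positive control.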
An asterisk follows results filed as active.

COC(C[C@H]1O[C@H]1[C@H](O)[C@H](C)OCc1ccccc1)OC was read as GLA inh pH 4.5 7, Rango dissoc inh 18%, miR-21 reporter 1% and Rango complex inh 1.7%.
Screening CCN1CCN(c2ccc(NC(=O)c3ccc4c(c3)[nH]c(=O)n4Cc3ccc(OC)cc3)cc2)CC1 returned GLA inh pH 4.5 -20, Rango dissoc inh 22%, miR-21 reporter -4% and Rango complex inh 0.7%.
Screening COc1cccc(OC)c1OCCCCN1CCCC1 returned GLA inh pH 4.5 9, Rango dissoc inh -1%, miR-21 reporter -4% and Rango complex inh -0.1%.
For CCOc1c(Cl)cc(CNc2ccc(S(N)(=O)=O)cc2)cc1OC the results were GLA inh pH 4.5 1, Rango dissoc inh 25%, miR-21 reporter 10% and Rango complex inh 5.6%.
CS(=O)(=O)N(CC(N)=O)c1cccc(Br)c1 was read as GLA inh pH 4.5 -1, Rango dissoc inh -4%, miR-21 reporter 2% and Rango complex inh 5.0%.
O=C(C1CCC(=O)N1Cc1cccnc1)N1CCN(c2ccc(F)cc2)CC1 (stereo unspecified) was read as GLA inh pH 4.5 2, Rango dissoc inh -1%, miR-21 reporter 5% and Rango complex inh 0.2%.
COc1cccc(Cn2c(=S)[nH]c3ccc(N4CCOCC4)cc3c2=O)c1 was read as GLA inh pH 4.5 -9, Rango dissoc inh inconclusive, miR-21 reporter -32% and Rango complex inh inconclusive.
Screening CCCS(=O)(=O)NCCc1cc2c(OC)ccc(OC)c2[nH]c1=O returned GLA inh pH 4.5 0, Rango dissoc inh 18%, miR-21 reporter -10% and Rango complex inh -3.6%.
`CCC(=O)Nc1ccc(NC(=S)NC(=O)c2oc3ccccc3c2C)cc1` gave GLA inh pH 4.5 0, Rango dissoc inh -7%, miR-21 reporter -11% and Rango complex inh -1.3%.
`CCN(CC)S(=O)(=O)c1cccc(-c2nnc(SCC(=O)c3cc(C)n(C)c3C)o2)c1` gave GLA inh pH 4.5 1, Rango dissoc inh -4%, miR-21 reporter -4% and Rango complex inh -0.2%.
For C=CC[C@@H](CC(=O)N[C@H](CO)Cc1ccccc1)C(=O)N[C@H](COC(=O)[C@@H](CC=C)Cc1ccc(F)cc1)Cc1ccccc1 the results were Rango dissoc inh -3% and Rango complex inh 4.4%.
COc1nnc(OC)c2ccccc12 was read as GLA inh pH 4.5 5, Rango dissoc inh 10%, miR-21 reporter 1% and Rango complex inh -0.5%.
CCC(C(=O)NC1CCCC1)N(Cc1ccco1)C(=O)CNS(=O)(=O)c1ccccc1 (stereo unspecified) was read as Rango dissoc inh 2%, miR-21 reporter 1% and Rango complex inh 0.5%.
COC(=O)c1cc(OC)c(OC)cc1NC(=O)C1CCC(=O)N1S(=O)(=O)c1ccc(C)cc1 (stereo unspecified) was read as GLA inh pH 4.5 -4, Rango dissoc inh -10%, miR-21 reporter -3% and Rango complex inh -0.3%.
Screening CCN(CC)C(=O)Cn1c(=O)n(-c2ccc(CC(=O)NCc3ccccc3)cc2)c(=O)c2sccc21 returned GLA inh pH 4.5 9, Rango dissoc inh -1%, miR-21 reporter -2% and Rango complex inh 3.2%.
CCOc1cccc(Nc2ccc([N+](=O)[O-])cn2)c1 was read as Rango dissoc inh -1%, miR-21 reporter -32% and Rango complex inh -6.9%.
Screening CC[C@H](C)[C@H]1CNC(=O)C(=O)N1CC1CCN(CC2CCC(C)CC2)CC1 (stereo partly specified) returned Rango dissoc inh -3% and Rango complex inh 4.8%.
`COc1cccc2oc(CCc3ccccc3)cc(=O)c12` gave Rango dissoc inh inconclusive and Rango complex inh -0.7%.
For c1ccc2c(-n3cccn3)cccc2c1 the results were GLA inh pH 4.5 0, Rango dissoc inh -14%, miR-21 reporter -35% and Rango complex inh 1.6%.
N#Cc1ccc(CSc2ccccn2)c(Cl)c1 was read as Rango dissoc inh 1%, miR-21 reporter -26% and Rango complex inh -0.4%.
`O=C(COc1cccc(-n2cnnn2)c1)NC1CCCCC1` gave GLA inh pH 4.5 -12, Rango dissoc inh 9%, miR-21 reporter -5% and Rango complex inh 0.4%.
`Cc1oc(-c2ccc(Cl)cc2)nc1CN1CCC(C(=O)NCc2cccnc2)CC1` gave GLA inh pH 4.5 -1, Rango dissoc inh 1%, miR-21 reporter 1% and Rango complex inh -5.0%.
CNC(=O)c1c(NC(=O)CCS(=O)(=O)c2ccccc2)sc2c1CCN(C(=O)OC)C2 was read as Rango dissoc inh -15% and Rango complex inh -5.1%.
`COc1ccc(C(=O)CN2CCN(CCN3C(=O)c4cccc5cccc(c45)C3=O)CC2)cc1` gave Rango dissoc inh 28% and Rango complex inh inconclusive.
`O=C(CN1C(=O)c2ccccc2C1=O)NNC1=NS(=O)(=O)c2ccccc21` gave GLA inh pH 4.5 0, Rango dissoc inh -11%, miR-21 reporter -6% and Rango complex inh -1.0%.
Screening CC(=O)N(C)c1ccc(NC(=O)Cc2cccc3ccccc23)cc1 returned Rango dissoc inh -2% and Rango complex inh -3.1%.
`Cc1ccccc1C(=O)NC1CC(C)(C)NC(C)(C)C1` gave GLA inh pH 4.5 5, Rango dissoc inh 7%, miR-21 reporter -3% and Rango complex inh -2.6%.
Cc1cccc(C)c1-n1c(C)nn(CC2CC2)c1=O was read as GLA inh pH 4.5 -2, Rango dissoc inh 2%, miR-21 reporter -1% and Rango complex inh 5.9%.
`N#C/C(=C\c1ccc[nH]1)C(=O)Nc1ccccc1[N+](=O)[O-]` gave Rango dissoc inh -16%, miR-21 reporter -41% and Rango complex inh -1.3%.
For C=CCn1c(=N)c(C(=O)NCCCOC)cc2c(=O)n3cc(C)ccc3nc21 the results were GLA inh pH 4.5 4, Rango dissoc inh inconclusive, miR-21 reporter 1% and Rango complex inh inconclusive.
For CCn1c(SCC(=O)NC2CCCCC2)nnc1-c1cccnc1 the results were Rango dissoc inh -29%, miR-21 reporter -4% and Rango complex inh inconclusive.
Screening O=C(CSc1nc2c(sc3ccccc32)c(=O)n1Cc1ccco1)NCC1CCCO1 (stereo unspecified) returned GLA inh pH 4.5 -5, Rango dissoc inh 7%, miR-21 reporter -3% and Rango complex inh -0.5%.
For Cc1cc2cc(CNC(=O)CC(C)C)ccc2n1C the results were GLA inh pH 4.5 3, Rango dissoc inh 5%, miR-21 reporter -12% and Rango complex inh -3.4%.
Screening CCNC(=O)CN(c1ccc(Cl)cc1)S(=O)(=O)c1ccccc1 returned GLA inh pH 4.5 9, Rango dissoc inh inconclusive, miR-21 reporter -5% and Rango complex inh -1.4%.
COc1ccc(CN(C)C(=O)c2cccc(C(=O)N(C)Cc3ccc(OC)cc3)c2)cc1 was read as Rango dissoc inh -2%, miR-21 reporter 20% and Rango complex inh inconclusive.
Screening Cn1ccc(C(=O)Oc2ccc(C(=O)Nc3ccc(F)cc3F)cc2)n1 returned GLA inh pH 4.5 5, Rango dissoc inh -3%, miR-21 reporter -46% and Rango complex inh -0.9%.
Screening COc1ccc(CC(=O)OCC(=O)Nc2c(C)n(C)n(-c3ccccc3)c2=O)cc1 returned GLA inh pH 4.5 4, Rango dissoc inh 2%, miR-21 reporter 3% and Rango complex inh -0.8%.
For COc1ccccc1-c1nnc(NC(=O)CCS(=O)(=O)c2ccccc2)o1 the results were Rango dissoc inh inconclusive, miR-21 reporter 10% and Rango complex inh 4.8%.
`Cc1ccccc1-n1nc2c(c1NC(=O)C1CCCC1)CS(=O)(=O)C2` gave Rango dissoc inh 1%, miR-21 reporter 0% and Rango complex inh 0.8%.
Screening COCc1cc(C)nc(NC2CC(C)(C)NC(C)(C)C2)c1C#N returned Rango dissoc inh -6%, miR-21 reporter -4% and Rango complex inh 4.5%.
Screening C[C@@H]1CC=C[C@H]2[C@H]1C(=O)N(Cc1ccccc1)[C@H]2c1ccc2ccccc2c1Br returned GLA inh pH 4.5 4, Rango dissoc inh -4%, miR-21 reporter inconclusive and Rango complex inh -0.8%.
COc1cccc(C2C([N+](=O)[O-])=C(N)Oc3cc(C)oc(=O)c32)c1 (stereo unspecified) was read as GLA inh pH 4.5 5, Rango dissoc inh -1%, miR-21 reporter 2% and Rango complex inh 5.5%.
O=C(NCCCn1ccnc1)C(=O)NCC1OCCN1S(=O)(=O)c1ccc(Cl)cc1 (stereo unspecified) was read as GLA inh pH 4.5 -14, Rango dissoc inh -8%, miR-21 reporter 1% and Rango complex inh -2.2%.
`Cn1ccnc1SC(=O)N1c2ccccc2Sc2ccccc21` gave GLA inh pH 4.5 -9, Rango dissoc inh -5%, miR-21 reporter 0% and Rango complex inh 0.8%.
`CCCC1(C(=O)OCC)NC(c2ccc(OC)cc2OC)C2C(=O)N(c3ccc4c(c3)OCCO4)C(=O)C21` (stereo unspecified) gave GLA inh pH 4.5 -8, Rango dissoc inh -10%, miR-21 reporter -8% and Rango complex inh 0.1%.
`CCOc1ccc(NC(=O)COc2ccc(C(=O)NCCc3ccccc3)cc2)cc1` gave GLA inh pH 4.5 -3, Rango dissoc inh -5%, miR-21 reporter -10% and Rango complex inh 1.5%.
c1ccc(CN2CCC(CNc3ncnc4ccccc34)C2)cc1 (stereo unspecified) was read as Rango dissoc inh -5% and Rango complex inh 0.2%.
For CCCCn1c(SCC(=O)N2CCC(C(=O)OCC)CC2)nc2cc(S(N)(=O)=O)ccc21 the results were GLA inh pH 4.5 -1, Rango dissoc inh -1%, miR-21 reporter -7% and Rango complex inh 0.0%.
FC(F)(F)c1cc(-c2ccc(Cl)cc2)nc(NCc2cccnc2)n1 was read as GLA inh pH 4.5 2, Rango dissoc inh inconclusive, miR-21 reporter 23% and Rango complex inh 2.9%.
Screening CN(C)S(=O)(=O)c1ccc(N2CCCC2)c(C(=O)Nc2ccc(N3CCOCC3)cc2)c1 returned GLA inh pH 4.5 0, Rango dissoc inh -12%, miR-21 reporter -2% and Rango complex inh 0.0%.

Molecules from the list above that have a thiophene ring, fused or not, in the order listed:
Screening CCN(CC)C(=O)Cn1c(=O)n(-c2ccc(CC(=O)NCc3ccccc3)cc2)c(=O)c2sccc21 returned GLA inh pH 4.5 9, Rango dissoc inh -1%, miR-21 reporter -2% and Rango complex inh 3.2%.
CNC(=O)c1c(NC(=O)CCS(=O)(=O)c2ccccc2)sc2c1CCN(C(=O)OC)C2 was read as Rango dissoc inh -15% and Rango complex inh -5.1%.
Screening O=C(CSc1nc2c(sc3ccccc32)c(=O)n1Cc1ccco1)NCC1CCCO1 (stereo unspecified) returned GLA inh pH 4.5 -5, Rango dissoc inh 7%, miR-21 reporter -3% and Rango complex inh -0.5%.

(further entries)
Screening CCOc1ccccc1NC(=O)C(c1ccccc1)N1CCN(C(=O)c2ccco2)CC1 (stereo unspecified) returned Rango dissoc inh 0% and Rango complex inh -0.6%.
For COc1cc(NS(=O)(=O)c2ccc(NC(=O)COc3ccccc3C)cc2)nc(OC)n1 the results were GLA inh pH 4.5 7, Rango dissoc inh 13%, miR-21 reporter -14% and Rango complex inh -3.0%.
N#Cc1cccnc1Nc1cccc(Cl)c1 was read as GLA inh pH 4.5 -1, Rango dissoc inh -11%, miR-21 reporter -14% and Rango complex inh 3.8%.
Screening Cc1ccc(OCC(=O)NCc2cccnc2)cc1 returned GLA inh pH 4.5 -28, Rango dissoc inh -8%, miR-21 reporter -2% and Rango complex inh -1.3%.

Copied from the results shown (4 entries):
Screening CN(C)S(=O)(=O)c1ccc(N2CCCC2)c(C(=O)Nc2ccc(N3CCOCC3)cc2)c1 returned GLA inh pH 4.5 0, Rango dissoc inh -12%, miR-21 reporter -2% and Rango complex inh 0.0%.
Screening CCOc1ccccc1NC(=O)C(c1ccccc1)N1CCN(C(=O)c2ccco2)CC1 (stereo unspecified) returned Rango dissoc inh 0% and Rango complex inh -0.6%.
For COc1cc(NS(=O)(=O)c2ccc(NC(=O)COc3ccccc3C)cc2)nc(OC)n1 the results were GLA inh pH 4.5 7, Rango dissoc inh 13%, miR-21 reporter -14% and Rango complex inh -3.0%.
N#Cc1cccnc1Nc1cccc(Cl)c1 was read as GLA inh pH 4.5 -1, Rango dissoc inh -11%, miR-21 reporter -14% and Rango complex inh 3.8%.

These rows are one share of the data; rates above refer to the full screens.
